Source: PubChem BioAssay (National Center for Advancing Translational Sciences (NCATS))
Vaccinia Venus – inhibitors of vaccinia virus (Venus reporter); Vaccinia virus Venus reporter expression, fluorescence; Potency, µM (titrated, usually from 36.5 µM), for the others: at the top dose activity change, negative = inhibition, usual class: inhibitors; actives 0.46% (n = 330,000); AID 720580; active means well fitted inhibition curve with a large enough effect; inconclusive means small, poorly fitted or top-dose-only effect; inactive means no such curve, though single readings can be large or run the other way; tested in A549 cells; also: nearly all actives have a fitted effect of over 30% in size; inactives centre near -10
VACV mCherry inh – vaccinia inhibition (mCherry reporter); Vaccinia virus mCherry reporter infection, fluorescence; about a quarter of the inactives have no number; actives 0.63% (n = 310,000); Potency, µM (top dose mostly 36.5 µM), inactives show at the top dose activity change, negative = inhibition, hits mostly inhibitors; active = well fitted inhibition curve with a large enough effect; inconclusive = small, poorly fitted or top-dose-only effect; inactive = no such curve, though single readings can be large or run the other way; tested in A549 cells; also: nearly all actives have a fitted effect of over 35% in size; inactives centre near -10
* = called active by the depositor; i = inactive; u = inconclusive; x = no result given; & = joins results of further samples; [ ] = another dose, or the depositor's remark. % is scaled to controls: 0 for no effect and ±100 for the full control effect; potency is read from the fitted curve at half-maximal effect.

SMILES	Vaccinia Venus	VACV mCherry inh
CCOc1ccccc1N(CC(=O)O)S(=O)(=O)c1ccccc1	-1%	-12%
Nc1cc2c(cc1[N+](=O)[O-])OCCO2	-3%	-13%
CC(Cc1ccccc1)N(C)C(=O)CN1C(=O)c2ccccc2C1=O (stereo unspecified)	-13%	-19%
O=C(CN1CCOCC1)Nc1c2c(nc3ccccc13)N(Cc1ccccc1)CC2	0%	x
Cc1ccc(Cn2cc(/C=N/NC(=O)Cc3nnc(NC(=O)c4ccc(C)cc4)s3)c3ccccc32)cc1	u	-27%
COc1ccc([C@H]2CC(=O)C=C(c3ccc4ccn(C)c4c3)C2)cc1	-22%	-27%
CC(=NO)C1(C)CC=CCC1CO (stereo unspecified)	-8%	-10%
CCOc1ccc2oc(=O)cc(CN3CCN(c4ccccc4OC)CC3)c2c1	-11%	-10%
CCOC(=O)N1CCC(NC(=O)C2=C(C)C(=O)OC23CCC(C)CC3)CC1 (stereo unspecified)	3%	-16%
CCN(CC(=O)NCc1cccs1)C(=O)/C=C/c1cccc(OC)c1OC	-1%	-14%
CCC1CCCCN1S(=O)(=O)c1ccc(NC(=O)c2nc(SC)ncc2Cl)cc1 (stereo unspecified)	-12%	-26%
C=CCSC1=N/C(=C\c2ccc(C(=O)O)cc2)C(=O)S1	4%	4%
O=C(COc1ncnc2ccccc12)Nc1cccc([N+](=O)[O-])c1	4%	i
O=C(CSc1nc(-c2ccncc2)nn1CC(=O)N1CCCCC1)NC1CCCC1	-13%	i
CCCCC(=O)OCC(=O)c1ccc(OCC)cc1	-2%	-10%
CCC(=O)Nc1ccc(-c2cc3ccccc3oc2=O)cc1	-14%	i
Cc1ccc(C)n1-c1ccc(C(=O)Nc2ccccc2F)cc1	-1%	0%
Cc1cccc(NC(=O)Cn2cnc3c(cnn3-c3ccc(F)cc3)c2=O)c1C	-25%	-26%
CS(=O)(=O)Nc1ccc(C(=O)NCC2CCCO2)cc1 (stereo unspecified)	-8%	x
CCc1c(SCCC(=O)O)nc2ccccc2c1C	-10%	-6%
O=C(Nc1cccc(S(=O)(=O)N2CCCCC2)c1)Nc1ccc(Cl)cc1Cl	u	-26%
C[C@@H](C(=O)NCCc1c[nH]c2ccccc12)[C@@H]1C[C@@]1(C)[C@@H](NC(=O)OCc1ccccc1)c1ccccc1	u	u
CC(C)OC(=O)Cn1nc(C(F)(F)F)c2c1CCCC2	12%	-10%
c1ccc(CNc2c3c(nc4ccccc24)CCC3)cc1	-22%	-2%
Cc1ccc(-c2nc3scc(CCNS(=O)(=O)c4ccc(C)c(C)c4)n3n2)cc1	-13%	-7%
COc1ccc(N2CCN(c3nc(NC(C)(C)C)nc(N4CCCCC4)n3)CC2)cc1	u	x
Cc1ccc(S(=O)(=O)NCC(=O)N(CC(=O)NCC2CCCO2)CC2CCCO2)cc1 (stereo unspecified)	-4%	i
Cc1cc(C)c(NC(=S)N(CCCN2CCN(C)CC2)Cc2cccs2)c(C)c1	-8%	-16%
O=S(=O)(c1cc(Cl)ccc1Cl)N1CCCCC1	-4%	-12%
CSc1ncc(-c2ccc(Cl)cc2)[nH]1	-7%[7.34 µM]	-14%[7.34 µM]

An excerpt of these results, with bars between the fields:
canonical_smiles | Vaccinia Venus | VACV mCherry inh
CC(Cc1ccccc1)N(C)C(=O)CN1C(=O)c2ccccc2C1=O (stereo unspecified) | -13% | -19%
O=C(CN1CCOCC1)Nc1c2c(nc3ccccc13)N(Cc1ccccc1)CC2 | 0% | x
Cc1ccc(Cn2cc(/C=N/NC(=O)Cc3nnc(NC(=O)c4ccc(C)cc4)s3)c3ccccc32)cc1 | u | -27%
COc1ccc([C@H]2CC(=O)C=C(c3ccc4ccn(C)c4c3)C2)cc1 | -22% | -27%
CC(=NO)C1(C)CC=CCC1CO (stereo unspecified) | -8% | -10%
CCOc1ccc2oc(=O)cc(CN3CCN(c4ccccc4OC)CC3)c2c1 | -11% | -10%
CCOC(=O)N1CCC(NC(=O)C2=C(C)C(=O)OC23CCC(C)CC3)CC1 (stereo unspecified) | 3% | -16%
CCN(CC(=O)NCc1cccs1)C(=O)/C=C/c1cccc(OC)c1OC | -1% | -14%
CCC1CCCCN1S(=O)(=O)c1ccc(NC(=O)c2nc(SC)ncc2Cl)cc1 (stereo unspecified) | -12% | -26%
C=CCSC1=N/C(=C\c2ccc(C(=O)O)cc2)C(=O)S1 | 4% | 4%
O=C(COc1ncnc2ccccc12)Nc1cccc([N+](=O)[O-])c1 | 4% | i
O=C(CSc1nc(-c2ccncc2)nn1CC(=O)N1CCCCC1)NC1CCCC1 | -13% | i
CCCCC(=O)OCC(=O)c1ccc(OCC)cc1 | -2% | -10%
CCC(=O)Nc1ccc(-c2cc3ccccc3oc2=O)cc1 | -14% | i
Cc1ccc(C)n1-c1ccc(C(=O)Nc2ccccc2F)cc1 | -1% | 0%
Cc1cccc(NC(=O)Cn2cnc3c(cnn3-c3ccc(F)cc3)c2=O)c1C | -25% | -26%
CS(=O)(=O)Nc1ccc(C(=O)NCC2CCCO2)cc1 (stereo unspecified) | -8% | x
CCc1c(SCCC(=O)O)nc2ccccc2c1C | -10% | -6%
O=C(Nc1cccc(S(=O)(=O)N2CCCCC2)c1)Nc1ccc(Cl)cc1Cl | u | -26%
C[C@@H](C(=O)NCCc1c[nH]c2ccccc12)[C@@H]1C[C@@]1(C)[C@@H](NC(=O)OCc1ccccc1)c1ccccc1 | u | u
CC(C)OC(=O)Cn1nc(C(F)(F)F)c2c1CCCC2 | 12% | -10%
c1ccc(CNc2c3c(nc4ccccc24)CCC3)cc1 | -22% | -2%
Cc1ccc(-c2nc3scc(CCNS(=O)(=O)c4ccc(C)c(C)c4)n3n2)cc1 | -13% | -7%
COc1ccc(N2CCN(c3nc(NC(C)(C)C)nc(N4CCCCC4)n3)CC2)cc1 | u | x
Cc1ccc(S(=O)(=O)NCC(=O)N(CC(=O)NCC2CCCO2)CC2CCCO2)cc1 (stereo unspecified) | -4% | i
Cc1cc(C)c(NC(=S)N(CCCN2CCN(C)CC2)Cc2cccs2)c(C)c1 | -8% | -16%
O=S(=O)(c1cc(Cl)ccc1Cl)N1CCCCC1 | -4% | -12%
CSc1ncc(-c2ccc(Cl)cc2)[nH]1 | -7%[7.34 µM] | -14%[7.34 µM]

The listing continues.
SMILES	Vaccinia Venus	VACV mCherry inh
O=C(O)C1C2C=CC(C2)C1C(=O)NC1CCS(=O)(=O)C1 (stereo unspecified)	-6%	x
Cc1cccc(/C=N/N(CCO)C2=NS(=O)(=O)c3ccccc32)c1	-25%	u
O=C(NCc1ccco1)c1cc(S(=O)(=O)N2CCOCC2)c(Cl)cc1Cl	0%	-6%
Cc1ccc(S(=O)(=O)NC(=O)NC(C)Cc2ccccc2)cc1 (stereo unspecified)	-4%	-13%
C/C(=N\NC(=O)COc1ccccc1)c1cccs1	-9%	-22%
O=C(Nc1ccc(F)cc1)c1oc2ccccc2c1NC(=O)C12CC3CC(CC(C3)C1)C2	3%	4%
Cc1cc(C(=O)N2CCC2(C)C(=O)NS(=O)(=O)c2ccc(Cl)cc2)nn1C (stereo unspecified)	5%	29%
CCCN(CC(=O)Nc1ccccc1C)C(=O)c1ccc2c(c1)OCO2	-12%	-10%
N#Cc1cc(-c2ccccc2)nnc1Oc1ccccc1	-17%	x
O=C(CNC(=O)C12CC3CC(CC(C3)C1)C2)NCc1ccccc1	-21%	-11%
COC(=O)c1ccc(C2C(C(=O)c3ccco3)=C(O)C(=O)N2CC2CCCO2)cc1 (stereo unspecified)	1%	4%
COC(=O)[C@]12CCCCC=C1N(Cc1ccccc1)C(=O)[C@H](CC(=O)NCc1cccc(C(F)(F)F)c1)C2	-16%	-22%
C/C(N)=C(/C#N)C(=O)COC(=O)c1ccccc1Oc1ccccc1	-11%	0%
O=C(N[C@H]1CC[C@@H](CCNS(=O)(=O)c2ccccc2Cl)O[C@@H]1CO)c1ccccc1	-12%	-20%
COCCn1nnnc1C(c1ccccc1)N1CCN(C(=O)c2ccco2)CC1 (stereo unspecified)	-5%	i
CCCC(=O)N1CCC1(C)C(=O)Nc1ncc(C(=O)OC)s1 (stereo unspecified)	3%	-13%
COc1ccccc1OCC(=O)Nc1cc(Cl)ccc1N1CCCCC1	-19%	i
CCn1c(CSc2n[nH]c(N)n2)nc2cc(C(=O)O)ccc21	77%[activator]	-10%
NC(=O)c1cc(S(=O)(=O)NCC2CCC(C(=O)Nc3cccc(Cl)c3)CC2)cs1 (stereo unspecified)	-5%	-14%
CC(C)(C)C(=O)C(Cc1ccccc1)n1cncn1 (stereo unspecified)	-9%	-8%
COc1ccccc1N1CCN(CCCOc2ccc(F)cc2)CC1	7%	x
CCOC(=O)c1cc2sccc2n1CC(=O)c1ccc2c(c1)OCCO2	-7%	-9%
S=C(NCC1CC1)N/N=C/c1ccccc1Cl	-3%[7.34 µM]	i[7.34 µM]
CN(Cc1ccccc1)C(=O)Cn1nc(C(F)(F)F)c2c1CCC2	-2%	-10%
CCOC(=O)c1c(C)[nH]c(C)c1C(=O)COC(=O)c1cc(OC)cc(OC)c1	-10%	i
CC1(c2ccccc2)NC(=O)N(CC(=O)N2CCN(S(=O)(=O)c3ccccc3[N+](=O)[O-])CC2)C1=O (stereo unspecified)	-7%	-9%
O=C(COCc1cc(-c2cccs2)on1)Nc1cc(Cl)ccc1O	-24%	-17%
CC(=O)NC1C(=O)N(C)c2ccc(Br)cc21 (stereo unspecified)	2%	-12%
COc1ccc2c(c1)c(N1CCCC1=O)c(C(=O)Nc1ccc(OC)c(Cl)c1)n2C	-4%	-2%
NC(=O)CNC(=O)C1CCN(S(=O)(=O)c2ccc(-n3cnnn3)cc2)CC1	-10%	7%

Of the compounds above, two have a tert-butyl group.
SMILES	Vaccinia Venus	VACV mCherry inh
COc1ccc(N2CCN(c3nc(NC(C)(C)C)nc(N4CCCCC4)n3)CC2)cc1	u	x
CC(C)(C)C(=O)C(Cc1ccccc1)n1cncn1 (stereo unspecified)	-9%	-8%

A different layout for some results above.
SMILES | Vaccinia Venus | VACV mCherry inh
CN(Cc1ccccc1)C(=O)Cn1nc(C(F)(F)F)c2c1CCC2 | -2% | -10%
CCOC(=O)c1c(C)[nH]c(C)c1C(=O)COC(=O)c1cc(OC)cc(OC)c1 | -10% | i

(further entries)
SMILES	Vaccinia Venus	VACV mCherry inh
CC1(c2nnc(-c3ccccc3)o2)CC(c2cccnc2)=NO1 (stereo unspecified)	-14%	i
N/C(=N\OC(=O)COc1cc(Cl)c(Cl)cc1Cl)c1ccncc1	-11%	i
Cc1ccc(Cn2ncc3c(N4CCN(c5ccccc5C)CC4)ncnc32)cc1	u	x
CCCN1CCC(NC(=O)Cc2ccc(C)cc2)CC1	-12%	-25%
Cc1nn(Cc2ccc(F)cc2Cl)c(C)c1[N+](=O)[O-]	-27%	-5%
COc1ccc2[nH]c(=O)c(CN(C(=O)c3cccnc3)c3ccccc3C)cc2c1	-2%	-11%
COCCCNC(=O)CNC(=S)N(Cc1cc(OC)c(OC)c(OC)c1)C1CCCC1	-5%	i
Cc1ccc(-n2ncc3c(Nc4cccc(Cl)c4)ncnc32)c(C)c1	-15%	-17%
O=C(CSc1ccc2nnc(-c3ccncc3)n2n1)Nc1ccc2c(c1)OCCO2	-8%	-15%
O=C(CCN1CCCO1)N1CCCC(N2CCN(c3cccc(C(F)(F)F)c3)CC2)C1 (stereo unspecified)	-17%	i
CN=c1scc(-c2ccco2)n1/N=C/c1ccc(O)c(O)c1	-26%	-25%
CCN(CC)C(=O)CSc1ncnc2c(-c3cccs3)nsc12	-16%	i
Cc1cc(=O)n(C)c(=O)n1CCCCCN1CCCC1	-7%	x
CCCCC[C@@H](C)N1C[C@@H](COCc2ccccc2)Oc2cc(N3CC[C@@H](O)C3)ccc2S1(=O)=O	3%	6%
Cc1ccc(CN2C(=O)c3ccccc3C2C(=O)NC2CCCCCC2)cc1 (stereo unspecified)	7%	-2%
O=C(Cc1cccc2ccccc12)NC(NC(=S)Nc1ccccc1Cl)C(Cl)(Cl)Cl (stereo unspecified)	-22%	-15%
COc1ccc(N(CC(=O)N2CCCC(C)C2)S(=O)(=O)c2c(C)nn(C)c2C)cc1 (stereo unspecified)	6%	-7%
Cc1ccc(C)c(NC(=S)N2CCC(C(=O)c3ccc(F)cc3)CC2)c1	-22%	-25%
CCOc1ccccc1NCN1C(=O)c2ccccc2C1=O	-9%	i
CN(C)CCCNC1CS(=O)(=O)CC1O (stereo unspecified)	7%	x
O=C(O)CC(NS(=O)(=O)c1cccc2nsnc12)c1ccc(F)cc1 (stereo unspecified)	-5%	x
CCOC(=O)[C@]12CCCC=C1N(CCC1=CCCCC1)C(=O)[C@H](CC(=O)N1CCSCC1)C2	-14%	-9%
Cn1c(=O)[nH]c2cc(-c3noc(-c4ccc(F)cc4)n3)ccc21	5%	-6%
O=C(NCc1cccc(Cl)c1)c1ccc(CS(=O)Cc2ccccc2Cl)o1 (stereo unspecified)	-11%&-2%	-8%&-1%
CCN(C(=O)CN1C(=O)NC2(CCCC2)C1=O)c1nc2c(C)cccc2s1	-25%	i
CCCCCOc1ccc(Br)cc1CSC(=N)N	11µM*	u
CCN1C/C(=C/c2cccs2)c2nc3ccccc3c(C(=O)O)c2C1	6%	i
COc1ccc([N+](=O)[O-])cc1NC(=O)N(C)Cc1ccco1	-2%	-1%
O=C(C(=O)N1CCCC1)c1c(-c2ccccc2)[nH]c2ccccc12	-13%	-6%
Cc1ccc(S(=O)(=O)N2CCCCC2)cc1C(=O)NCc1ccccn1	1%	23%
COc1ccccc1NC(=O)c1oc2ccc(C)cc2c1C	-11%	x
CC1=CC(c2ccccc2)n2nc(N3C(=O)CCC3=O)nc2N1 (stereo unspecified)	-4%	-15%
